From PubChem
GIRK2 act – activators of human GIRK2 potassium channels | G protein-activated inward rectifier potassium channel 2 (Homo sapiens), P48051 | actives 0.05% (n = 63,000) | HEK293-GIRK2 thallium flux, Thallos fluorescence | calls only for hits at 25 µM;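 active means among the strongest 0.2% of first-round signals and kept after retests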;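 further: first round at about 10 µM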
Target sequence (P48051 whole entry, looked up): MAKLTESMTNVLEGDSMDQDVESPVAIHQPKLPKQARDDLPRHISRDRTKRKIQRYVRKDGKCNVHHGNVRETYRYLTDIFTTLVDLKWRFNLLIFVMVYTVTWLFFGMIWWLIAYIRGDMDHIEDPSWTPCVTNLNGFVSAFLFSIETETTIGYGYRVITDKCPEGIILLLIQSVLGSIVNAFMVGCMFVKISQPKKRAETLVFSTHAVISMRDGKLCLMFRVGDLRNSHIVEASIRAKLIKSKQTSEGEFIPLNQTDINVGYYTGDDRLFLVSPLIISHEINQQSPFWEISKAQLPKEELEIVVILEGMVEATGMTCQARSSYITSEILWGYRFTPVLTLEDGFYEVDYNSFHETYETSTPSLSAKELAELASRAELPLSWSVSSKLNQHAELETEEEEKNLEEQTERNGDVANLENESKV
Calls only; i = inactive.

SMILES	GIRK2 act
O=C(CSc1nc2[nH]ncc2c(=O)n1-c1ccccc1)Nc1nsc(-c2ccc(Cl)cc2)n1	i
O=C(Cn1nc2c(c1NC(=O)CSCc1ccccc1)CSC2)NCC1CCCO1 (centres undefined)	i
CCn1c(C)nc2cc(Cl)c(Cl)cc21	i
O=C(CN1CCOCC1)C12CC3CC(C1)CC(c1ccccc1)(C3)C2	i
COc1cccc(NC(=O)Cn2c(C)cc(C)c(-c3nc(-c4ccccc4)no3)c2=O)c1	i
Cc1nccn1-c1ncc(NC(=O)COc2ccc(-n3cccn3)nn2)cn1	i
O=C(c1cc(=O)c2ccccc2o1)N1CCN(c2ncnc3c2nnn3-c2cccc(F)c2)CC1	i
O=C(NCC#CCN1CCc2ccccc2C1)c1ccno1	i
Cc1cccc(COc2ccc(N3CCn4c3nc3c4c(=O)n(C)c(=O)n3C)cc2)c1	i
COCCn1nnn(-c2ccc(NC(=O)/C=C/c3ccc4c(c3)OCO4)cc2)c1=O	i
Cc1cc(C(=O)NCCn2nc(C(F)(F)F)n(C)c2=O)c(C)o1	i
O=S(=O)(NC1CCCCC1)c1cccc2cccnc12	i
O=C(c1cccs1)N1CCCSCC1CN1CCCCC1 (centres undefined)	i
O=C(NCC1CCN(Cc2ccsc2)CC1)Nc1ccccc1F	i
COc1ccc(CC(=O)NCc2nc(C)no2)cc1OC	i
O=C(NCC(O)c1ccc2c(c1)CCO2)Nc1ccccc1C(F)(F)F (centres undefined)	i
COc1ccc(C2C(=C(O)c3ccc(C)cc3)C(=O)C(=O)N2c2cc(C)on2)cc1 (centres undefined)	i
COc1ccccc1NC(=O)N1CCN(c2cc(N3CCCCC3)ncn2)CC1	i
CN1CCN(Cc2ccc(NC(=O)Nc3ccc(F)cc3)cc2)CC1	i
Cc1ccc(-c2cc3c(=O)n(CC(=O)NCCc4ccccc4)ncn3n2)cc1C	i
Cc1cc(=O)[nH]c2ccc(S(=O)(=O)Nc3cc(Cl)ccc3Cl)cc12	i
COCCNC(=O)CN1CCN(c2ccc(C)cc2)C1=O	i
COC(=O)c1cn(Cc2ccccc2Cl)nc1S(=O)(=O)N1CCCCC1	i
Cn1c(=O)c2[nH]cnc2n(C)c1=O	i
O=C(c1ccsc1)N1CCCC(c2nnc(-c3ccccc3F)s2)C1 (centres undefined)	i
Cc1cc(F)ccc1S(=O)(=O)NCC(c1ccc2c(c1)OCO2)N1CCOCC1 (centres undefined)	i
COc1ccccc1N1CCN(C(=O)CSc2ncnc3ccccc23)CC1	i
Cc1nc(-c2cccs2)sc1CNS(=O)(=O)c1ccc(F)c(Cl)c1	i
CCN(CC)CCNC(=O)C(=O)c1c[nH]c2ccccc12	i
O=C(Cn1cnnn1)NCC1CCC(c2nc3ccccc3[nH]2)CC1 (centres undefined)	i
Cc1nc2ccccc2n(CC(=O)Nc2ccccc2Cl)c1=O	i
Cc1c(C)n2c3c(=O)n(CCCO)c(=O)n(C)c3nc2n1C1CCCCC1	i
O=C(CCN1C(=O)S/C(=C/c2ccc(F)cc2)C1=O)Nc1ccc(C(=O)O)c(O)c1	i
Cc1ccc(C(O)CNC(=O)/C=C/c2ccccc2)o1 (centres undefined)	i
O=C(CCn1c(=S)[nH]c2cc3c(cc2c1=O)OCO3)NCCc1ccc(Cl)cc1	i
COc1ccc(CC(=O)N2CCC(CSc3nccn3C)CC2)cc1OC	i
Cc1cc(Nc2ccc(F)cc2)nc2nn(Cc3cccc(C#N)c3)c(=O)n12	i
O=C(NCc1ccc(F)cc1)c1ccc(S(=O)(=O)NCc2cccs2)o1	i
COc1ccc(NC(=O)CSc2nnc(-c3ccccc3OC)n2N)cc1OC	i
COc1cccc(-c2csc(-c3nnn(-c4ccccc4)c3N)n2)c1	i
COc1cc(OC)c(-n2nnc(-c3nc(-c4ccc5c(c4)OCO5)cs3)c2N)cc1Cl	i
COc1cccc(S(=O)(=O)NCc2ccc(C(=O)Nc3cccnc3)cc2)c1	i
COc1ccc(-c2cnc(SCC(N)=O)n2-c2ccccc2)cc1	i
Cc1ccc(CNC(=O)Cn2c(-c3ccc(F)cc3)nc3c(c2=O)CCN(Cc2ccccc2)C3)cc1	i
O=C(NCCn1ncccc1=O)c1ccc(Br)o1	i
COc1ccccc1NC(=O)CSc1nc2c(sc(=S)n2-c2ccc(Cl)cc2)c(=O)[nH]1	i
COc1ccc(CCNC(=O)C(C)n2ncccc2=O)cc1OC (centres undefined)	i
Cc1nc(C)c(C(=O)NCCCn2ncccc2=O)s1	i
CCCCN(C)C(=O)Cn1nc2c(-c3nc(-c4ccc(Cl)cc4)no3)cccn2c1=O	i
COc1cc(CCN2C(=O)c3cccc4cccc(c34)C2=O)c(S(=O)(=O)NC2CCS(=O)(=O)C2)cc1OC (centres undefined)	i
CCOC(=O)Cn1c(=O)c2c(nc3n(-c4ccccc4OCC)c(C)cn23)n(C)c1=O	i
CCOc1ccc2nc(N3CCN(C(=O)Nc4ccccc4)CC3)sc2c1	i
CC1CCCN(S(=O)(=O)c2cc(Br)ccc2Br)C1 (centres undefined)	i
COc1cccc(-c2nc(-c3nnn(-c4ccccc4)c3-c3ccncc3)no2)c1	i
O=C(Cn1nnc2ccccc21)Nc1cc(OCc2ccc3c(c2)OCO3)ncn1	i
CCc1nc2sc(C(c3ccc(C(F)(F)F)cc3)N3CCCC3)c(O)n2n1 (centres undefined)	i
CC1CCN(S(=O)(=O)c2cccn(CC(=O)Nc3ccc(F)cc3F)c2=O)CC1	i
COc1ccc(Nc2ncnc3[nH]ncc23)cc1OC	i
O=C(Nc1ccccc1Cl)c1ccc(S(=O)(=O)NC2CC2)o1	i
CCC(C(=O)N1CCc2nc(NC(=O)c3ccsc3)sc2C1)c1ccccc1 (centres undefined)	i

Part of the list above in order of count of non-hydrogen atoms, high to low.
SMILES	GIRK2 act
CCC(C(=O)N1CCc2nc(NC(=O)c3ccsc3)sc2C1)c1ccccc1 (centres undefined)	i
CCOc1ccc2nc(N3CCN(C(=O)Nc4ccccc4)CC3)sc2c1	i
CC1CCCN(S(=O)(=O)c2cc(Br)ccc2Br)C1 (centres undefined)	i

Remaining list, next part:
SMILES	GIRK2 act
Cc1cccc(Nc2nc(C(=O)NCCC3=CCCCC3)cs2)n1	i
CCCS(=O)(=O)N1CCCc2cc(NS(=O)(=O)c3cc(C)c(OC)c(C)c3)ccc21	i
N#C/C(=C\N1CCN(c2cccc(Cl)c2)CC1)S(=O)(=O)c1ccc(Cl)cc1	i
Cc1nc(-c2ccco2)sc1CNC(=O)COc1ccc2c(c1)OCO2	i
CCc1cnc2c(c1SCCC1OCCCO1)c(=O)n(C)c(=O)n2C	i
COc1ccc(OC)c2sc(N(CC3CCCO3)C(C)=O)nc12 (centres undefined)	i
O=C(NCc1ccc(F)cc1)C(=O)NCC(O)c1ccsc1 (centres undefined)	i
CCOC(=O)/C(C#N)=C1\SC(Cc2ccc(Br)cc2)C(=O)N1c1ccc(C)cc1 (centres undefined)	i
COC(=O)N1CCc2ccccc2C1C(=O)Nc1nc(C)cs1 (centres undefined)	i
N#CC(Cc1ccc(O)cc1)c1ccc(O)cc1 (centres undefined)	i
Cc1nc(-c2ccc(F)cc2)sc1-c1cc(C(=O)N2CCN(Cc3ccccc3)CC2)n[nH]1	i
Oc1c(CN2CCC(Cc3ccccc3)CC2)cc(Cl)c2cccnc12	i
CCOC(=O)C1CCCN(C(=O)c2csc(-c3cc4ccccc4[nH]3)n2)C1 (centres undefined)	i
N#Cc1ccc(-c2csc(NC(=O)CCCSc3ccccc3)n2)cc1	i
CC(C)C(=O)Nc1ccc(C(=O)NCCNS(=O)(=O)c2cccc(Cl)c2)cc1	i
CC1(CCOC2OC(CO)C(O)C(O)C2O)CCC2C(=CCC3C(C)(C(=O)O)CCCC23C)C1 (centres undefined)	i
Cc1ccc(S(=O)(=O)N2CCN(CCNC(=O)Cc3ccc(F)cc3)CC2)cc1	i
COc1ccc(NC(=O)Cn2cc(S(=O)(=O)c3ccccc3)c(=O)c3ccccc32)cc1	i
CC(O)(CNS(=O)(=O)c1ccc2c(c1)CCCC2)c1ccco1 (centres undefined)	i
Cc1cc(F)ccc1S(=O)(=O)N1CCCCC1CCNC(=O)C(=O)NCCN(C)C (centres undefined)	i
O=C(c1cccc(Br)c1)N1CCN(CCn2cccn2)CC1	i
Cc1cc(NC(=O)Cn2ncc(SCC(N)=O)c(Cl)c2=O)ccc1Br	i
COc1ccccc1-c1cc(C(=O)N2CCC(c3nnc(-c4ccco4)o3)CC2)[nH]n1	i
COc1ccc(C(=O)N2CCN(S(=O)(=O)c3c(C)cc(C)cc3C)CC2)cc1OC	i
Cn1cc(C2=C(c3ccccc3C(F)(F)F)C(=O)NC2=O)c2ccccc21	i
Cn1c(=O)c(C(=O)Nc2ccc(Br)cc2)c(O)c2sccc21	i
COc1ccccc1C1(CNC(=O)c2ccccc2C(F)(F)F)CCOCC1	i
COc1ccc(-n2nnc(C(=O)Nc3cccc(-c4csc(C)n4)c3)n2)cc1	i
CC(C)S(=O)(=O)c1ccc(CC(=O)N(Cc2ccsc2)Cc2ccco2)cc1	i
O=C(Cc1ccccc1Cl)Nc1ccc(-n2nnc(C(=O)NCC(F)(F)F)n2)cc1	i
COc1ccc(SCCCC(=O)Nc2ccc(F)cc2F)cc1	i
CN(C)CCCCCCOc1ccc([N+]2=CC=NC2)cc1	i
COc1ccc(C(=O)Nc2ccc(S(=O)(=O)N3CCCCCC3)cc2)cc1	i
O=C(NCCc1ccccc1)c1n[nH]n2c1nc(=O)c1cc(F)ccc12	i
CC(C)(C)C(=O)Oc1ccc(C(=O)Nc2ccccc2)cc1	i
COCCn1c(-c2cccs2)nc2oc3cc(OC)ccc3c(=O)c2c1=O	i
COc1nn(C)cc1C(=O)N1CC(c2nc(-c3ccc[nH]c3=O)no2)C1	i
COc1ccc2c(c1)c1nc(SCC(=O)Nc3ccc(C)cc3Cl)n(C)c(=O)c1n2C	i
O=C(c1cc(-c2ccco2)on1)N(Cc1ccoc1)Cc1cccs1	i
O=C(NCc1ccc(F)cc1Cl)c1nnn(Cc2cccc(F)c2)c1-n1cccc1	i
CCCCCn1c(=O)c2c(nc3n2CC(C)CN3c2cc(C)ccc2OC)n(C)c1=O (centres undefined)	i
Cc1nc(-c2ccco2)sc1CNC(=O)C1CCN(S(C)(=O)=O)CC1	i
O=C(COc1ccc(Cl)cc1Cl)N1CCC(CSc2ccccn2)CC1	i
Cc1cc(SCC(=O)c2ccc3c(c2)OCO3)nc(C(C)C)n1	i
O=C(c1cc(-c2ccccc2)on1)N1CCC(CSc2ccccn2)CC1	i
Cc1ccc(S(=O)(=O)N2CCN=C2SCc2ccc(Br)cc2)cc1	i
CN1C(=O)C(C)(C)COc2cc(NC(=O)Nc3ccccc3)ccc21	i
CCCCCCCC/C=C\CCCCCC(=O)O	i
COc1ccc(-c2nc(N)ncc2Oc2ccccc2Br)c(O)c1	i
Cn1nc(C2CCN(C(=O)CCSc3ccccc3)CC2)n(-c2ccccc2)c1=O	i
Cc1cccc(-c2csc3c(=O)[nH]c(N4CCC(C(=O)NCc5ccccn5)CC4)nc23)c1	i
COc1ccc(C2(CNC(=O)c3cccs3)CCOCC2)cc1	i
COc1ccccc1/C=C1\CCn2c1nc(=O)c1ccccc12	i
O=C(c1cc(-c2cccs2)[nH]n1)N1CC(c2nc(-c3ccc[nH]c3=O)no2)C1	i
CC(=O)NC1C(=O)N(CCOc2ccc(Cl)cc2)c2ccc(Cl)cc21 (centres undefined)	i
CS(=O)(=O)c1ccc2nc(N(Cc3ccco3)C(=O)/C=C/c3cccs3)sc2c1	i
CC(C)(Oc1ccc(Cl)cc1)C(=O)Nc1cnc(-n2cccn2)nc1	i
C=CC[C@]12C[C@@H](OC)C(=O)C(OC)=C1O[C@@H](c1cc(OC)c3c(c1)OCO3)[C@@H]2C	i
COc1ccc(-c2noc(-c3cccn(CC(=O)Nc4ccc(C(C)=O)cc4)c3=O)n2)cc1OC	i
CCC(Sc1nc2cc(OC)c(OC)cc2c2nc(C)nn12)C(=O)Nc1cccc(OC)c1 (centres undefined)	i

More records.
SMILES	GIRK2 act
O=S(=O)(c1ccc(C(F)(F)F)cc1)N(CCc1cccs1)Cc1ccoc1	i
O=C(CCCCCn1c(=S)[nH]c2cc3c(cc2c1=O)OCO3)NCCc1ccc(Cl)cc1	i
CC(=O)c1ccc(NC(=O)CN2CCN(Cc3nc4ccccc4n3C)CC2)cc1	i
COc1ccc(-c2nnc(NC(=O)c3ccc4nsnc4c3)o2)c(OC)c1	i
CN1CCN(c2nnc(SCC(=O)NCc3ccc(F)cc3)s2)CC1	i
CC(Cc1cccs1)NC(=O)CCCc1ccccc1 (centres undefined)	i
COc1ccc(CNC(=O)C(=O)NCCC2CCCCN2S(=O)(=O)c2cc(C)ccc2C)cc1 (centres undefined)	i
C/C(=N/Nc1nc2c(c(=O)[nH]c(=O)n2C)n1CC(C)O)c1ccc([N+](=O)[O-])cc1 (centres undefined)	i

Grouped by structure: the entries above containing a furan ring, fused or not
SMILES	GIRK2 act
Cc1cc(C(=O)NCCn2nc(C(F)(F)F)n(C)c2=O)c(C)o1	i
Cc1ccc(C(O)CNC(=O)/C=C/c2ccccc2)o1 (centres undefined)	i
O=C(NCc1ccc(F)cc1)c1ccc(S(=O)(=O)NCc2cccs2)o1	i
O=C(NCCn1ncccc1=O)c1ccc(Br)o1	i
O=C(Nc1ccccc1Cl)c1ccc(S(=O)(=O)NC2CC2)o1	i
Cc1nc(-c2ccco2)sc1CNC(=O)COc1ccc2c(c1)OCO2	i
CC(O)(CNS(=O)(=O)c1ccc2c(c1)CCCC2)c1ccco1 (centres undefined)	i
COc1ccccc1-c1cc(C(=O)N2CCC(c3nnc(-c4ccco4)o3)CC2)[nH]n1	i
CC(C)S(=O)(=O)c1ccc(CC(=O)N(Cc2ccsc2)Cc2ccco2)cc1	i
O=C(c1cc(-c2ccco2)on1)N(Cc1ccoc1)Cc1cccs1	i
Cc1nc(-c2ccco2)sc1CNC(=O)C1CCN(S(C)(=O)=O)CC1	i
CS(=O)(=O)c1ccc2nc(N(Cc3ccco3)C(=O)/C=C/c3cccs3)sc2c1	i
O=S(=O)(c1ccc(C(F)(F)F)cc1)N(CCc1cccs1)Cc1ccoc1	i

Only part of the results is shown (hit frequency here may not be typical).
